Screens: PubChem, several laboratories
Env fusion inh = inhibitors of HIV Env-mediated cell fusion | AID 651610 | HeLa-JRFL Env/CEM21 cell fusion, luciferase | inhibition, % at 12.3 µM | 360,000 compounds, 1.1% hits;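 active = mean replicate inhibition score of at least 50 and every replicate individually at or above 50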;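 also: 0% = plate neutral controls and 100% = maraviroc near 300 nM; one replicate is shown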
CSC inhib = blocks cancer stem cells; inhibition, % at 7.5 µM; cancer stem cell-like cells viability, luminescence; 300,000 compounds, 1.1% hits;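 active = mean at 75% or more and at least half the replicates too; tested in HMLE shEcad cells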;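 also: 0% = median of negative and 100% = median of positive control wells; the first replicate is given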
MT1-MMP act inh = blocks activation of human MT1-MMP. GFP/RFP ratio change, % at 20 µM. AID 651647. HT1080 RFP-PRO-GFP cells, GFP/RFP ratio fluorescence, overnight; percent of plate control window, DMSO zero. 360,000 compounds, 0.061% hits. P50281;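 active = GFP/RFP ratio change of at least 30% with cell ATP level not reduced by more than half and red fluorescence within 50% of control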; also: strong numbers were not always called active
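Assay system: HT1080 RFP-PRO-GFP cells. Benchmarks: DMSO vehicle wells and RFP-L50D-GFP reporter cell wells. Times: overnight cell settling, then overnight compound exposure, 37 °C, 5% CO2. Compound: 20 µM single dose, 1% DMSO. Read-out basis: GFP/RFP fluorescence ratio.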
Rce1 inh = yeast Ras-converting enzyme inhibition. Q03530. calls only. 290,000 compounds, 0.27% hits. yeast membranes, quenched prenylated peptide cleavage fluorescence;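 active = fall in fluorescence gain of 50% or more versus controls, with final raw signal at or below 3038400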;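 also: plate controls were neutral control wells for no effect and wells lacking membranes for full effect; tested at 10 µM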
Target sequence (Q03530 whole entry, looked up): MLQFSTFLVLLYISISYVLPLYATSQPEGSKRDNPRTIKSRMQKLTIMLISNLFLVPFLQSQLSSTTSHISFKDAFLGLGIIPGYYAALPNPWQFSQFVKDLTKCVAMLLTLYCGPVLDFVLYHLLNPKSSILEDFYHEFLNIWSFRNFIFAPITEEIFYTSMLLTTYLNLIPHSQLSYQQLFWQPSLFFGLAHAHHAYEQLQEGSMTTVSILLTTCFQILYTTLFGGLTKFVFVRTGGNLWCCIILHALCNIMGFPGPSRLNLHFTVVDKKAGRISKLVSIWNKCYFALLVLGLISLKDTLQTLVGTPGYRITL
UUG fidelity = modulators of start codon recognition fidelity in yeast; activity score, % at 18.7 µM; S. cerevisiae UUG-firefly luciferase reporter, luminescence/redox ratio; 350,000 compounds, 0.13% hits;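 active = replicate mean at a twofold rise or more, about +100% in these data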;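 also: firefly luciferase made from a UUG start codon reports start codon fidelity; reporter light over untreated wells divided by growth signal over untreated wells; some hits fall short of that in this replicate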
PABP FP inh = PABP-poly(A) binding inhibition. AID 2014. inhibition, % at 35 µM. 290,000 compounds, 1% hits. P11940. PABP-poly(A) RNA binding, fluorescence polarization;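 active = 50% or more with normal probe brightness, or confirmed in later tests; about a fifth of its hits are not listed in these tables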;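 also: calls also rest on retests at 20 µM and on dose response follow-up; controls were probe without protein and protein plus probe with vehicle; some compounds called inactive have numbers as strong as hits; many hits fall short of the cut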
eIF4H FP inh = inhibitors of RNA binding by human eIF4H; Q15056; eIF4H fluorescence polarization binding assay; inhibition, % at 35 µM; 290,000 compounds, 0.94% hits;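 active = 50% or more with normal probe brightness, or confirmed in later tests; about a fifth of its hits are not listed in these tables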;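 also: calls also rest on retests at 20 µM and on dose response follow-up; 0% = protein and probe with vehicle and 100% = probe without protein; strong numbers were not always called active; many hits fall short of the cut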
eIF4H FP inh retest = recorded beside eIF4H FP inh, whose call it bears; inhibition, %; compound at 20 µM; confirmation average;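 mean of two retest wells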
PABP FP inh retest = also measured in PABP FP inh; calls as there; inhibition, %; compound at 20 µM; confirmation repeats;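 mean of two retest wells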
MT1-MMP act inh RFP = second read-out of MT1-MMP act inh, no call of its own (marks repeat the call); RFP signal change, %; measured here: RFP expression control read;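 0 = vehicle wells; hits needed this value within 50% of zero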
Starred values were filed as active, the others as inactive; i = inactive; nt = no result given; [ ] = remark or other dose.

SMILES	Env fusion inh	CSC inhib	MT1-MMP act inh	MT1-MMP act inh RFP	Rce1 inh	UUG fidelity	PABP FP inh	eIF4H FP inh	others
Cc1ccc(C)c(S(=O)(=O)/N=C2\C=C(NS(=O)(=O)c3ccccc3)C(=O)c3ccccc32)c1	10.4	nt	22.5	18.8	i	-22.1	5.9	15.5
CCCCN(C)CCNC(=O)c1cn(C)c(=O)c2c1c1ccccc1n2C	18.4	3.5	2.7	7.3	i	-25.5	-3.9	4.1
O=Cc1ccc2oc3nc4n(c(=O)c3c(=O)c2c1)CCCS4	-80.5	-9.0	-0.7	4.1	i	3.1	47.8	80.7	eIF4H FP inh retest=-6.5;PABP FP inh retest=7.9
Cc1noc(C)c1NC(=O)Nc1ccc2c(c1)C(=O)N([C@H](C)CO)C[C@H](C)[C@@H](CN(C)C(=O)Nc1ccccc1)O2	-0.9[16.7 µM]	nt	0.1	6.0	nt	16.3	nt	nt
CC(=O)N1c2ccc(S(=O)(=O)N3CCCC3)cc2CC1C(=O)NCc1cccc(F)c1 (stereo unspecified)	-6.5	-0.9	0.9	0.7	i	-8.1	-3.8	-4.1
CCN(c1ccccc1)S(=O)(=O)c1ccc(C(=O)NCCCN2CCOCC2)cc1	nt	-4.7	4.3	4.3	nt	-25.5	nt	nt
CC(=O)Nc1ccc(N(CC(=O)NCC2CCCO2)C(=O)CCC(=O)Nc2cc(C)on2)cc1 (stereo unspecified)	9.2	-9.5	2.5	4.9	i	-12.2	2.8	-3.3
CCCCN(C(=O)CCSc1ccc(F)cc1)c1c(N)n(Cc2ccccc2)c(=O)[nH]c1=O	-5.0	nt	-8.5	-3.8	i	nt	nt	nt
NC1=NC(=O)/C(=C\c2ccc(O)c([N+](=O)[O-])c2)S1	-1.0	4.1	5.1	-1.0	i	nt	-6.6	0.4
CC1=C(C#N)C(C(F)(F)F)(C(F)(F)F)N=C(c2ccco2)N1	-0.1	-12.6	5.2	-1.6	i	-13.7	5.0	4.7
CCCCC(SCC(=O)Nc1ccccc1)C(=O)O (stereo unspecified)	nt	-2.1	1.9	0.9	i	-13.0	7.4	-1.7
Cn1c(=O)c2c(nc(NCCO)n2CCCc2ccccc2)n(C)c1=O	10.1	9.1	1.9	-10.6	i	4.2	-15.4	-3.5
O=[N+]([O-])c1ccc(-c2cn3c(n2)SCC3)cc1	-14.1	5.9	7.1	0.9	i	-9.3	nt	nt
Cc1ccc(C)c(SCC(=O)Nc2cccc(S(=O)(=O)NC3=NCCCCC3)c2)c1	-7.1	-3.5	-0.5	-2.9	i	nt	13.8	2.9
COc1ccc(NC(=O)c2ccc(NS(=O)(=O)c3cccc4cccnc34)cc2)cc1	-2.9	2.9	-0.1	-0.5	i	-13.3	-1.6	0.0
N#C/C(C(=O)N1CCCCC1)=C1\Nc2ccccc2S1	nt	-9.1	2.2	-0.3	i	-26.3	-5.6	4.6
C=CCN(c1ccc(F)cc1)S(=O)(=O)c1cc(C(=O)OCC(=O)N(C)C2CCS(=O)(=O)C2)ccc1Cl (stereo unspecified)	10.2	1.2	1.5	-2.6	i	4.5	-13.1	-5.2
O=S(=O)(Nc1ccncc1Cl)c1ccc2ccccc2c1	-7.8	-0.6	-2.1	1.5	i	-10.8	13.5	-3.5
COc1cccc(C(O)c2ncc(-c3ccccc3)[nH]2)c1 (stereo unspecified)	-7.2	nt	0.1	4.1	nt	-17.1	nt	nt
Clc1ccccc1-c1nc(-c2ccccc2)n[nH]1	-133.4	-2.9	-2.0	1.9	i	-13.9	7.5	1.0
CCOc1ccc(NC(=O)c2cc(SC)ccc2Cl)cc1	-5.1	-4.8	3.2	0.7	i	nt	1.7	-3.0
COc1cccc(/C=C/C(=O)OCC(=O)c2c[nH]c3ccccc23)c1OC	5.2	3.8	-0.2	-4.4	i	-36.7	-20.2	35.3
Cc1noc(C)c1C(=O)OC(C)C(=O)Nc1ccc([N+](=O)[O-])cc1C(F)(F)F (stereo unspecified)	-2.8	nt	3.2	3.0	nt	-34.1	nt	nt
CC(C)(C)NS(=O)(=O)c1ccc(CCC(=O)Nc2cc(Cl)ccc2Oc2ccccc2)cc1	nt	22.8	-10.2	-29.7	i	-8.4	-1.6	9.8
COc1ccccc1-n1c(CNC(=O)c2ccco2)nnc1SCC(=O)Nc1ccc(F)cc1	nt	-0.4	6.9	-1.7	i	-2.0	-1.3	-4.8

Next records follow:
SMILES	Env fusion inh	CSC inhib	MT1-MMP act inh	MT1-MMP act inh RFP	Rce1 inh	UUG fidelity	PABP FP inh	eIF4H FP inh	others
O=C(NCC1CCCO1)C1CCN(S(=O)(=O)c2ccc(Br)cc2)CC1 (stereo unspecified)	0.6	nt	4.4	8.5	i	-17.6	0.0	-8.9
CCn1c2ccccc2c2cc(NC(=O)C(C)C)ccc21	-20.8	19.7	2.6	0.9	i	-11.9	-8.8	-7.5
O=C(NCCCN1CCOCC1)c1ccc2c(c1)N(Cc1ccccc1)CCS2	-9.4	44.4	-1.7	2.8	i	-0.2	-15.5	2.1
COc1ccccc1OCCOc1ccccc1/C=N/n1cnnc1	nt	-2.0	1.7	1.2	i	-9.8	1.2	-7.7
Cc1ccc(Cl)cc1NC(=O)COC(=O)CC1CC2CCC1C2 (stereo unspecified)	-43.2	-4.8	-2.8	-8.0	i	-20.4	-0.1	4.1
CCN(CCCNC(=O)CCCCn1c(=O)[nH]c2ccccc2c1=O)c1ccccc1	-27.2	-8.9	3.4	2.2	i	-9.3	0.2	-10.7
COc1ccc(C2CC3(O)CC(C#N)(C(=O)N3)C2(C#N)C#N)cc1 (stereo unspecified)	22.0	-3.4	-2.7	0.6	nt	nt	8.3	12.3
Cc1ccc(-n2c(=S)[nH]c3sc4c(c3c2=O)CCc2ccccc2-4)cc1	-5.7	41.3	-5.0	-7.6	i	nt	10.1	13.0
CCNC(=O)CC1C(=O)N(CC)C(=S)N1NC(=O)c1ccc(Cl)cc1 (stereo unspecified)	13.1	-3.8	-5.9	-6.1	i	0.2	7.6	1.7
O=C(Nc1nnc(-c2ccc3c(c2)CCCC3)o1)C1CCCCC1	-18.2	nt	nt	nt	i	-6.3	-4.6	7.9
O=C(CN1CCN(C/C=C/c2ccccc2)CC1)NCc1ccccc1	20.2	nt	3.9	8.1	nt	nt	7.4	6.7
CC1CCN(c2ccc(NC(=S)NC(=O)c3ccc(-c4cccc([N+](=O)[O-])c4)o3)cc2)CC1	-3.0	nt	0.5	-11.1	i	-20.6	12.0	11.2
CC1CC(C)CN(C(=O)COC(=O)CNC(=O)C23CC4CC(CC(C4)C2)C3)C1 (stereo unspecified)	-4.0	-3.9	3.7	6.1	i	2.2	nt	nt
O=C(NCc1cccc(Cl)c1)N1CCN(S(=O)(=O)c2ccccc2F)CC1	-1.6	-3.2	0.0	3.8	i	4.7	4.3	5.2
CCOc1ccc(NC(=S)NC(=O)c2cccnc2)c([N+](=O)[O-])c1	-7.9	-3.5	3.5	0.3	i	-12.2	-0.4	-13.2
CCCc1cc(=O)oc2cc(C)cc(OC(C)C(=O)NCCN3CCOCC3)c12 (stereo unspecified)	24.4	0.3	nt	nt	i	0.6	4.1	6.1
COc1ncccc1-c1cc2nc(NCCNC(C)=O)n(C)c(=O)c2s1	-34.4	nt	7.3	4.0	nt	-5.0	nt	nt
COC(=O)C1CN(C(=O)C(C)Oc2cccc(C)c2C)c2ccccc2O1 (stereo unspecified)	6.3	-11.7	-1.4	1.0	i	-6.5	-2.5	-15.4
c1ccc(Cn2nnnc2C(c2ccncc2)N2CCOCC2)cc1 (stereo unspecified)	nt	-10.3	-0.9	2.1	i	-10.4	-2.8	7.6
Cc1cc(S(=O)(=O)NCc2ccccc2)ccc1OCC(=O)N1CCCC1	-3.0	-4.3	-3.5	-3.1	i	-8.2	2.0	-5.4
Cc1nnc(Oc2ccccc2)c2ccccc12	nt	25.8	0.9	12.1	i	-18.8	-6.9	0.5
CC(=O)c1ccn(S(=O)(=O)c2ccccc2)c1	15.9	-4.7	0.8	0.0	i	-12.0	4.8	3.8
O=C(COc1ccccc1[N+](=O)[O-])OCCCOC(=O)COc1ccccc1[N+](=O)[O-]	nt	-5.6	nt	nt	i	-10.4	3.4	-17.8
Cc1cccc(N2CCN(C(=O)Cn3nc(Cc4ccncc4)c4ccccc4c3=O)CC2)c1C	21.5	12.1	-4.3	-10.0	i	-13.0	nt	nt
COc1ccc2c(CN3CCN(Cc4ccccc4)CC3)cc(=O)oc2c1	-22.9	nt	-4.2	3.2	nt	1.0	nt	nt

Next structures.
SMILES	Env fusion inh	CSC inhib	MT1-MMP act inh	MT1-MMP act inh RFP	Rce1 inh	UUG fidelity	PABP FP inh	eIF4H FP inh	others
COc1ccc(/C=C/C(=O)NC(=S)N2CCN(c3ccccc3OC)CC2)cc1	-27.5	0.3	-5.7	-1.2	i	nt	4.8	-1.9
CC(=O)N1c2ccc(N=Cc3cc(Br)cc(Br)c3O)cc2CC1C (stereo unspecified)	nt	2.3	nt	nt	i	nt	29.7	48.2
COc1ccc(C=O)cc1C1=CC(=O)C[C@H](c2ccc(Cl)cc2)C1	0.0	28.4	1.8	-2.2	nt	-4.9	nt	nt
CCCCNC(=S)Nc1ccc2nc3n(c(=O)c2c1)CCCCC3	10.4	6.9	2.8	-0.6	i	-22.0	6.2	1.5
O=c1cc2c(nn1Cc1ccccc1Cl)-c1ccccc1CC2	nt	nt	-4.4	-2.4	i	-11.7	-9.9	-9.5
O=[N+]([O-])c1ccc([N+](=O)[O-])c(Nc2ccc(N3CCOCC3)cc2)c1	6.7	-4.1	0.4	0.0	i	nt	-3.2	-6.9
CCc1ccc(S(=O)(=O)Nc2ccc(-c3ccc4nnc(C)n4n3)cc2)s1	nt	-0.8	0.7	6.6	nt	-16.4	nt	nt
CC(C)CCNC(=O)C(C)N(C(=O)c1snc(C(N)=O)c1N)c1cnc2ccccc2c1 (stereo unspecified)	8.0	-6.7	3.9	-1.7	i	3.2	50.7*	5.3	eIF4H FP inh retest=26.5;PABP FP inh retest=75.5*
O=[N+]([O-])c1cc(F)c(N2CCCCC2)cc1N1CCOCC1	nt	-14.2	10.3	-4.9	i	3.6	5.2	-9.1
CCCCCC(=O)Nc1nc(C)c(-c2csc(Nc3ccc(Cl)cc3)n2)s1	1.8	45.5	13.8	2.9	i	-3.5	1.3	-5.0
O=C(O)CC(NC(=O)OCc1ccccc1)c1ccccc1 (stereo unspecified)	nt	-5.0	2.5	3.7	i	-21.6	7.6	-9.9
CN(C)C(CNC(=O)CCS(=O)(=O)c1ccccc1)c1ccccc1 (stereo unspecified)	-6.3	-4.5	-0.4	1.9	i	-4.5	-7.4	6.7
CC(C)(C)CN1CCNC(=O)C1CC(=O)N1CCOc2ccccc2C1 (stereo unspecified)	10.4	8.1	-2.5	7.1	i	nt	-8.1	-1.9
O=C(Nc1ccc2c(c1)[C@@H]1C[C@@H](CC(=O)N3CCCCC3)O[C@@H](CO)[C@@H]1O2)NC1CCCCC1	1.3	nt	3.5	-0.3	nt	-5.7	nt	nt
O=C(Cc1ccccc1)N(c1ccc(F)cc1)C1C=CS(=O)(=O)C1 (stereo unspecified)	nt	0.2	-4.8	4.6	i	-4.6	-5.4	-16.2

A portion of the results above:
SMILES	Env fusion inh	CSC inhib	MT1-MMP act inh	MT1-MMP act inh RFP	Rce1 inh	UUG fidelity	PABP FP inh	eIF4H FP inh	others
CC(C)(C)CN1CCNC(=O)C1CC(=O)N1CCOc2ccccc2C1 (stereo unspecified)	10.4	8.1	-2.5	7.1	i	nt	-8.1	-1.9
O=C(Nc1ccc2c(c1)[C@@H]1C[C@@H](CC(=O)N3CCCCC3)O[C@@H](CO)[C@@H]1O2)NC1CCCCC1	1.3	nt	3.5	-0.3	nt	-5.7	nt	nt
O=C(Cc1ccccc1)N(c1ccc(F)cc1)C1C=CS(=O)(=O)C1 (stereo unspecified)	nt	0.2	-4.8	4.6	i	-4.6	-5.4	-16.2

Only part of the results is shown (hit frequency here may not be typical).
